# HNF4A DNA FP – change in binding of human HNF4A to DNA, primary screen, biochemical, fluorescence polarization, FITC-DNA | Hepatocyte nuclear factor 4-alpha (Homo sapiens), P41235 | 1 h | activity change, % at 10 µM | actives 0.3% (n = 360,000); in the data active = activity change above about 30%, passing the limit was not always enough;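 note: controls were the assay level and a saturating level of protein; the project sought stronger binding though the title names inhibitors; some compounds called inactive have numbers as strong as hits; positive values seem to mean higher polarization but the record does not say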
# Target sequence (P41235 whole entry, looked up): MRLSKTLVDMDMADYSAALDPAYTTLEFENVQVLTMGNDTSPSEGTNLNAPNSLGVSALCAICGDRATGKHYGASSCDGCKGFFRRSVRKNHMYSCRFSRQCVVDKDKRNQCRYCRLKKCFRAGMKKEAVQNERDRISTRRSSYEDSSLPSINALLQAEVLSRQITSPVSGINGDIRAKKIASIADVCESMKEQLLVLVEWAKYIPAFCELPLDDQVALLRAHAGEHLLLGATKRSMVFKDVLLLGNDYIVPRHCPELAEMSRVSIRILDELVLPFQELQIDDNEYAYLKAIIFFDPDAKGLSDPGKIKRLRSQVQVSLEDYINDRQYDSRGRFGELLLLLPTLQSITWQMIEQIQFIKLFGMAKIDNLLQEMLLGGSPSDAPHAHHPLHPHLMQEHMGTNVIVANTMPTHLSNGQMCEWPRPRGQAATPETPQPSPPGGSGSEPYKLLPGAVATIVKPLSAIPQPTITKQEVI
# UCH37 DUB inh – inhibitors of human UCH37 deubiquitinase, primary screen, biochemical, Ub-AMC cleavage, fluorescence | Ubiquitin carboxyl-terminal hydrolase isozyme L5 (Homo sapiens), Q9Y5K5 | purified proteasome/UCH37 | inhibition, % (test concentration not listed) | actives 0.33% (n = 330,000) | AID 588478, 2011;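 active = mean of two replicates above 20%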;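 note: 0% = compound-free wells with enzyme and 100% = wells lacking proteasome; stock transfer was 100 nL into about 20 µL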
#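 System: Proteasome-associated human UCH37 deubiquitinase; Input: 0.15 nM proteasome in added enzyme buffer; Also added: Ub-AMC substrate from 1 µM stock; Incubation: 30 min compound-proteasome preincubation then 25 min substrate reaction, room temperature; Detection: fluorescence, ex 355 nm, em 460 nm; Read-out: % inhibition of Ub-AMC cleavage fluorescence; Benchmarks: no-proteasome and no-compound wells.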
# E coli growth – E. coli growth inhibition, primary screen, OD600 | AID 1053175, 2014 | Escherichia coli growth, 23 h; stronger effect = lower value | actives 0.21% (n = 330,000) | OD600 absorbance (concentration not given with the values);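 active = OD600 absorbance below the run mean of sample wells minus 3.6 SD, in any replicate, cut at about 0.56 in these data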;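 note: stock transfer was 300 nL into about 60 µL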
# LANA-H2A inh – blockers of LANA interaction with H2A/H2B – biochemical, FP readout, HTS, primary screen; Protein LANA1 (Human herpesvirus 8 type P (isolate GK18)), Q9QR71; cell-free LANA-H2A/H2B peptide, fluorescence polarization; actives 0.6% (n = 320,000); AID 2629, 2010; inhibition, % (test concentration not listed); in the data active = inhibition mostly above about 10%, no sharp cut-off; inactive = mostly below about 6.7%;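 note: stock transfer was 7.5 nL into about 10 µL; 0% = median of vehicle wells and 100% = median of positive control wells; one replicate is shown; the record names a cut of 25% in any replicate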
# ALR H2O2 inh – inhibitors of human ALR sulfhydryl oxidase, primary screen, biochemical, H2O2 detection, HRP-luminol luminescence, single point. FAD-linked sulfhydryl oxidase ALR (Homo sapiens), P55789. purified ALR, DTT oxidation. inhibition, % (concentration not given with the values). actives 3.8% (n = 290,000);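 active = mean and each replicate at 75% or more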;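 note: stock transfer was 7.5 nL into about 7.5 µL; 0% = neutral wells and 100% = wells with inactivated enzyme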
# Target sequence (P55789 whole entry, looked up): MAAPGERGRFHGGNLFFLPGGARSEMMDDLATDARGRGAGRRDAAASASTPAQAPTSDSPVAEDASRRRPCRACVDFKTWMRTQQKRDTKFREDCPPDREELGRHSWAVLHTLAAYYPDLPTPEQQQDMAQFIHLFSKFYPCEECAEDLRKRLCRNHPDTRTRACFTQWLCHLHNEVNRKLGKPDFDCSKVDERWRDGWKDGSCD
# FGF22 binding – binders of human FGF22 protein, primary screen, FGF22 synaptogenesis inhibitor project, biophysical, thermal shift, single point. actives 1.5% (n = 340,000). calls only at 9.99 µM. recombinant FGF22 thermal shift, SYPRO orange fluorescence; percent of sucrose octasulfate shift, DMSO zero. AID 651658, 2012;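 active = melting point raised past a set limit in the mean and every replicate; three in four hits are not shown here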
# Beta2AR agonist – beta2AR agonists driving receptor internalization, primary screen, cell-based, FAP fluorogen, flow cytometry. Am2.2-beta2AR cells; reference of the scale not given here. response, % (concentration not given with the values). actives 0.43% (n = 340,000);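 active = response above a set limit, near 3 SD of response in nonfluorescent compounds, cut at about 42% in these data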;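 note: stock transfer was 100 nL into about 11 µL; a reference agonist was the positive control; negative values mostly stem from fluorescent compounds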
# Target sequence (P07550 whole entry, looked up): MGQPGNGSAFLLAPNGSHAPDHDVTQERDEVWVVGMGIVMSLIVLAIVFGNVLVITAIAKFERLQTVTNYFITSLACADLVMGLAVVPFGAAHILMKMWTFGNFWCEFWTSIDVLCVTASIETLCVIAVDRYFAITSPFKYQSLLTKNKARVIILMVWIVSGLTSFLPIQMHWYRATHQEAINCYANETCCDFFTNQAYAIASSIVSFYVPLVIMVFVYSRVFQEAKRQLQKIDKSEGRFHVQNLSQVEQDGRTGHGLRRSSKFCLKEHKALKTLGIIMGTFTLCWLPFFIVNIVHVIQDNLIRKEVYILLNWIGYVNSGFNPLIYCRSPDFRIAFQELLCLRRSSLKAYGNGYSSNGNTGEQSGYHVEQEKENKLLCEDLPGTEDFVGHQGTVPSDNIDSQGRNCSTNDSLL
# Active calls of the source: *; i = inactive; . = no result given. A portion of the library; count on the stated rates, not on these rows.
SMILES,HNF4A DNA FP,UCH37 DUB inh,E coli growth,LANA-H2A inh,ALR H2O2 inh,FGF22 binding,Beta2AR agonist
CC(C)C(=O)NC(=S)Nc1ccc(S(=O)(=O)N(C)C)cc1,-0.9,4.7,0.703,-3.8,.,i,-40.9
CCCN=C1NC(=O)C(CC(=O)NCCc2ccccc2)S1 (stereo unspecified),0.6,0.0,0.683,3.2,-2.2,i,3.4
O=C1CC2(CCCCC2)Oc2ccc(Cl)cc21,0.2,-33.9,0.722,-1.9,.,i,4.1
C/C(Cl)=C\Cn1c(O)c(N=NC(N)=S)c2ccccc21,3.1,7.1,0.701,-1.5,5.2,.,-5.2
O=C(O)COc1ccccc1/C=N/NC(=O)CSc1nnc(SCc2ccccc2)s1,5.3,.,.,1.7,.,i,3.1
CCOC(=O)CSc1ncc(OC)c(Sc2ccc(Cl)cc2)n1,-1.3,2.9,0.728,-6.6,-11.0,.,-8.6
O=C(Nc1ccccc1)Nc1cccc(-c2nnco2)c1,-1.9,0.3,0.632,8.2,.,i,-1.5
COc1ccc(-c2noc(CCCC(=O)NC3CCCCC3)n2)cc1,4.9,-0.6,0.631,7.7,.,i,-8.9
CCOC(=O)/C(C#N)=C/c1cc(C)n(-c2ccccc2)c1C,-1.3,6.0,0.718,2.8,15.8,.,-2.0
CC1=CC(C)(C)N2C(=O)C3(C(C#N)=C(N)Oc4cc(O)ccc43)c3cccc1c32 (stereo unspecified),-0.8,-2.2,0.693,-0.2,-29.7,.,-1.1
COc1ccc(C2CC3(CC(C)(C)NC(=S)N3)Oc3cc(O)cc(C)c32)cc1OC (stereo unspecified),2.1,1.8,0.678,1.2,6.9,i,1.4
CCOCCCN(C)C1CCN(S(=O)(=O)c2csc(C(N)=O)c2)CC1,-4.0,-0.4,0.683,1.0,-1.9,i,6.9
O=C(CCc1ccccc1)NNC(=S)Nc1ccc(F)cc1,4.4,.,.,-1.7,17.2,i,7.8
Cc1nn(C)c(Cl)c1CN1CCC(n2nccc2NC(=O)C2CCCC2)CC1,7.0,1.8,0.732,-4.0,-5.3,i,2.2
Cc1ccc(-n2c(=O)c3ccc(C(=O)NCc4ccco4)cc3n(Cc3ccccc3C#N)c2=O)cc1,1.5,0.9,0.716,-0.7,13.6,i,-2.0
COC(=O)c1cc(C(=O)c2c(C)cc3ccccn23)cc([N+](=O)[O-])c1,0.1,0.9,0.698,2.7,.,i,23.6
CCn1cc(C(=O)NC(=S)Nc2ccccc2[N+](=O)[O-])cn1,-0.7,4.1,0.746,-7.1,98.8*,i,-1.1
CN(C1=C(NC(=O)c2ccc(Cl)cc2)C(=O)c2ccccc2C1=O)c1ccccc1,-1.1,0.5,.,-0.8,-20.0,.,2.9
Cc1ccc(-c2nn(-c3ccccc3)cc2C(=O)NCC(c2cccs2)N2CCOCC2)cc1 (stereo unspecified),-3.9,0.7,0.667,11.7,.,i,0.2
Cc1cc(NC(=O)CSCC(=O)OC(C)C(=O)N(C)Cc2ccccc2)no1 (stereo unspecified),2.7,3.8,0.644,2.3,-12.4,i,0.9
Oc1ccc(N=Nc2ccc3c(c2)OCCO3)c2cccnc12,-5.3,5.9,0.73,-3.6,-42.1,i,12.4
CC(C)c1nnc(NC(=O)C2CCN(S(=O)(=O)c3ccc(-n4cnnn4)cc3)CC2)s1,0.3,-1.3,0.653,-8.7,-2.8,i,4.9
O=C(O)c1ccc(/C=N/NC(=O)C(O)(c2ccccc2)c2ccccc2)cc1,3.2,.,.,8.0,-10.7,i,2.6
CC(C)c1ccc(S(=O)(=O)N2CCN(C(=O)[C@@H]3CCCN3C(=O)c3cccs3)CC2)cc1,4.2,2.6,0.697,.,.,i,7.0
Cc1ccsc1/C=c1\sc2ncnn2c1=O,-0.2,.,.,2.1,-2.3,.,-2.1
O=[N+]([O-])c1cccc(C2=NCCS2)c1,2.2,2.0,0.685,-3.0,-1.4,.,-2.7
CC(C)c1cc(CN2CCN(CCC#N)CC2)cc(C(C)C)c1O,-1.2,-0.5,0.732,-4.2,26.6,.,-8.0
Cc1cccn2c(CN[C@@H]3CCCC[C@H]3c3ccccc3)c(C(=O)N3CCOCC3)nc12,20.1,-1.5,0.658,-1.4,-2.5,i,0.1
CC(SCc1ccccc1)C(=O)Nc1ccc2c(c1)OCO2 (stereo unspecified),1.4,1.4,0.627,7.6,50.8,.,2.2
Oc1ccc(C23CC4CC(CC(C4)C2)C3)cc1O,1.1,.,.,-2.7,98.8*,i,23.9
CCCN1C(=O)c2ccc(C(=O)NCc3ccco3)cc2C1=O,1.4,1.9,0.655,5.6,-31.2,.,11.3
CSc1nnc(C)c(=O)n1COC(=O)COc1ccc(F)cc1,3.5,1.4,0.697,7.3,3.7,i,6.6
CC1(C)Cc2c(sc3[nH]c(=S)n(Cc4ccccc4)c(=O)c23)CO1,1.1,9.7,0.69,1.3,8.4,i,2.1
CCCC(=O)N1CCN(C2=NS(=O)(=O)c3ccccc32)CC1,-8.4,3.8,0.699,-4.3,-8.6,.,-0.2
COCCCNC(=S)Nc1ccc(N2CCCCC2)cc1,3.2,5.2,0.72,-1.8,97.5*,i,-3.2
COc1ccc(NC(=S)NCc2cccnc2)cc1,2.8,0.0,0.643,0.0,8.2,i,-3.6
O=c1c2ccccc2nc(/C=C/c2cc(Br)ccc2O)n1CCO,0.2,-0.3,0.641,-0.7,12.5,i,7.6
NCCC1CN(C(=O)OCc2ccccc2)c2ccccc21 (stereo unspecified),5.9,.,.,.,.,i,-20.0
Nc1nnc(SCC(=O)NC2CCCCC2)n1-c1ccccc1,-4.5,2.2,0.697,2.7,11.8,.,-6.6
CC(C)Oc1ccc(C2CC(=O)NC2=O)cc1 (stereo unspecified),-2.7,5.1,0.611,0.5,0.8,i,9.2
Fc1ccccc1OCCSc1nc2ccccc2o1,2.9,5.4,0.775,-1.3,-7.2,.,15.7
Cc1cccc(C)c1NC(=O)CNC(=O)c1ccc2c(c1)NC(=O)CS2,7.3,-1.0,0.723,.,.,i,-0.1
CCOC(=O)C1CCN(C(=O)c2cccc(NS(=O)(=O)c3ccc(F)c(F)c3)c2)CC1,-3.8,4.4,0.692,3.6,.,i,4.9
CCCCCc1ccc(OCCCC[n+]2cccc(C)c2)c(CCCCC)c1,0.4,2.4,.,3.3,-2.2,.,2.8
COc1cccc(NC(=O)COC(=O)c2c(-c3ccccc3)noc2C)c1,-0.1,1.0,0.653,1.8,-3.1,.,-2.8

# Reprinted from the part before: 2 compounds, followed by the next part.
SMILES,HNF4A DNA FP,UCH37 DUB inh,E coli growth,LANA-H2A inh,ALR H2O2 inh,FGF22 binding,Beta2AR agonist
CCCCCc1ccc(OCCCC[n+]2cccc(C)c2)c(CCCCC)c1,0.4,2.4,.,3.3,-2.2,.,2.8
COc1cccc(NC(=O)COC(=O)c2c(-c3ccccc3)noc2C)c1,-0.1,1.0,0.653,1.8,-3.1,.,-2.8
CN1C[C@@H]2[C@@H]3C(=O)N(C)C(=O)[C@@H]3[C@](C)(C1=O)N2C(=O)c1ccc(Cl)c(Cl)c1,0.1,-2.1,.,.,.,i,7.4
CC1Cc2nc(SCC(N)=O)n(C)c(=O)c2S1 (stereo unspecified),-2.5,8.6,0.666,4.5,0.6,i,6.0
CCCNC(=O)c1ccc(S(N)(=O)=O)cc1,0.5,4.4,0.662,-4.9,-1.7,i,-15.8
Cc1nnc(SCCOC(N)=O)n1C,-1.2,0.6,0.651,.,.,.,4.8
CCCc1cc(=O)oc2cc(OC(C)C(=O)NCCCn3ccnc3)ccc12 (stereo unspecified),4.3,-12.7,0.651,-3.6,-0.2,i,-9.4
O=C(Nc1ccc(F)cc1F)c1csc(-c2ccccc2)n1,2.1,2.0,0.637,-1.8,-1.2,i,0.9
O=C(Nc1cccc(Cl)c1)OCc1cn(-c2ccc(Cl)cc2)nn1,1.7,1.4,0.706,1.9,-13.7,.,6.5
O=C(Cc1csc(N2CCOCC2)n1)N/N=C/c1ccc(O)c(O)c1O,0.4,.,.,.,.,i,46.0*
COc1ccc(-c2[nH]n(-c3ccc([N+](=O)[O-])cc3)c(=O)c2C=NCC2CCCO2)cc1 (stereo unspecified),2.0,0.9,0.736,4.1,-0.9,i,-4.6
CCCCc1nc2cc(C(=O)NCc3nccn3CC)ccc2o1,-9.5,-0.5,0.646,4.2,19.3,i,-6.2
COc1ccc(CN2CCC(=O)N([C@H](CO)Cc3ccccc3)CC2)cc1,-3.1,-0.1,.,-3.5,1.5,i,1.3
Cc1ccc(C(=O)NC(=S)NCc2cccnc2)cc1C,-1.1,.,.,-5.9,-1.5,i,-8.7
COc1ccc(C(=O)NCc2ccc(-c3nc4ccccc4s3)cc2)cc1OC,-1.3,-2.1,0.749,2.3,-2.4,.,5.0
CCOC(=O)N1CCN(C(=O)CSc2ccc(-c3ccccc3OC)nn2)CC1,-2.0,-1.6,0.731,-2.3,-0.1,i,-13.4
O=C(CSc1nnc(-c2ccncc2)s1)Nc1ccc(Cl)c(C(=O)O)c1,-1.9,3.2,0.691,0.0,-5.2,i,1.9
Cn1nnc2cc(C(=O)N3CCSCC3)ccc21,0.8,0.7,0.722,-8.0,-27.1,.,3.9
COc1ccc(-c2cc(C)no2)cc1S(=O)(=O)Nc1ccc(NC(C)=O)cc1,-2.2,2.4,0.665,1.8,-13.0,i,-11.6
Cn1nnnc1SCC(=O)Nc1ccc(Oc2ccccc2)cc1,3.1,3.7,0.683,3.6,-12.7,.,-9.2
COc1ccc(N2C(=O)N3[C@H](c4ccc(Cl)cc4)[C@@H]4C(=O)N(C5CCCCC5)C(=O)[C@@H]4[C@]3(C)C2=O)cc1,2.9,2.3,.,-4.0,.,i,-2.7
COc1cccc(C(=O)Nc2ccc(C)cc2)c1,-3.0,4.5,0.696,-5.2,0.9,.,2.9
O=C(COc1ccc2ccccc2c1)NC1=NCCS1,0.3,1.4,0.698,0.9,-8.6,.,-4.8
O/C=c1\ccc2cccc3nc(C(F)(F)F)nc1c23,-25.9,17.1,0.605,0.7,-101.1,i,-186.7
O=C(Nc1nnc(SCc2ccc(Cl)cc2Cl)s1)C1COc2ccccc2O1 (stereo unspecified),-0.6,1.6,0.714,0.1,6.6,.,2.7
COC(C(=O)NNS(=O)(=O)c1ccc([N+](=O)[O-])cc1)c1ccccc1 (stereo unspecified),3.5,4.3,0.693,5.5,-14.7,.,5.0
COc1ccc(CN(C(=O)c2ccco2)C2CCS(=O)(=O)C2)cc1 (stereo unspecified),-4.9,-1.6,0.703,6.3,1.2,i,-3.3
CN(C)C(=O)CCc1ccc2c3c([nH]c2c1)[C@]1(C)[C@@H](C(=O)N2CCOCC2)C[C@H](CC(=O)NCc2ccco2)C(=O)N1CC3,-1.4,2.9,0.686,.,.,i,-2.2
COCc1[nH]nc2c1C(c1c(F)cccc1Cl)C(C#N)=C(N)O2 (stereo unspecified),-2.1,1.5,0.701,-5.3,.,.,-1.6
CN(Cc1ccc(Cl)cc1)C(=O)CCl,-2.7,2.4,0.671,-2.3,1.1,i,1.1
O=C(CSc1nnnn1-c1ccc(Cl)cc1)N1CCNC1=O,0.8,3.6,0.723,3.0,-9.4,i,-1.6
CCOC(=O)c1nn(-c2ccc(F)cc2)c2nc(-c3ccccc3)c(C#N)c(=O)n12,-0.1,-6.7,0.712,-1.2,2.8,.,1.4
Cc1c(O)ccc(NC(=O)/C=C/c2ccccc2)c1C,1.8,1.7,0.668,4.3,61.1,i,2.2
O=C(NCCCN1CCCC1=O)c1ccc2c(c1)NC(=O)C(N1CCOCC1)S2 (stereo unspecified),-0.3,1.4,0.739,.,.,.,1.6

# Screens from PubChem.
